High-throughput results (PubChem BioAssay)
ClpP mod: qHTS Assay for Activators of ClpP; purified B. subtilis ClpP, FRET peptide cleavage, 20 min; 340,000 tested, 1.9% active; Potency, µM (top dose mostly 57.5 µM), inactives show top-dose activity change, negative = active; ATP-dependent Clp protease proteolytic subunit (Bacillus subtilis (strain 168)), P80244; AID 651965, 2013; active = well fitted falling curve with a large enough effect; inconclusive = small, poorly fitted or top-dose-only effect; inactive = no such curve, though single readings can be large or run the other way; also: potency is read from the fitted curve at half-maximal effect; the source files actives as falling curves though it sought activators and does not explain the sign; nearly all actives have a fitted effect of over 65% in size; many hits overshoot -100%
Target sequence (P80244 whole entry, looked up): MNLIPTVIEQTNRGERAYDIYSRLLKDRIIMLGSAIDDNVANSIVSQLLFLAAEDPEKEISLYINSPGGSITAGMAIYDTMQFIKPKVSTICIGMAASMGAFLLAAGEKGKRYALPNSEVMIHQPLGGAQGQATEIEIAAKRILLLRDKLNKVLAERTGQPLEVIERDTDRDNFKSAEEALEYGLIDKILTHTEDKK
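ClpP 10 microg/mL final, pH 8 Tris/KCl buffer with BSA, glycerol, Tween-20; compound pinned in; FRET-FV substrate; RT 20 min; Ex320/Em430; ΔFRET vs ADEP 5.8 microM, DMSO, no enzyme.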
TRPV1 PAM: enhances activation of the human vanilloid receptor TRPV1 | AID 540277 | potentiation, % at 8.33 µM | Q8NER1 | TRPV1-expressing cells, Fluo-8 calcium influx, capsaicin EC20 potentiation; host cell line not named in the record; control for the full effect not named in the record | 320,000 tested, 0.02% active; active means potentiation above 80%; inconclusive means 30% to 80%; inactive means below 30%; also: 0% is about no effect
Target sequence (Q8NER1 whole entry, looked up): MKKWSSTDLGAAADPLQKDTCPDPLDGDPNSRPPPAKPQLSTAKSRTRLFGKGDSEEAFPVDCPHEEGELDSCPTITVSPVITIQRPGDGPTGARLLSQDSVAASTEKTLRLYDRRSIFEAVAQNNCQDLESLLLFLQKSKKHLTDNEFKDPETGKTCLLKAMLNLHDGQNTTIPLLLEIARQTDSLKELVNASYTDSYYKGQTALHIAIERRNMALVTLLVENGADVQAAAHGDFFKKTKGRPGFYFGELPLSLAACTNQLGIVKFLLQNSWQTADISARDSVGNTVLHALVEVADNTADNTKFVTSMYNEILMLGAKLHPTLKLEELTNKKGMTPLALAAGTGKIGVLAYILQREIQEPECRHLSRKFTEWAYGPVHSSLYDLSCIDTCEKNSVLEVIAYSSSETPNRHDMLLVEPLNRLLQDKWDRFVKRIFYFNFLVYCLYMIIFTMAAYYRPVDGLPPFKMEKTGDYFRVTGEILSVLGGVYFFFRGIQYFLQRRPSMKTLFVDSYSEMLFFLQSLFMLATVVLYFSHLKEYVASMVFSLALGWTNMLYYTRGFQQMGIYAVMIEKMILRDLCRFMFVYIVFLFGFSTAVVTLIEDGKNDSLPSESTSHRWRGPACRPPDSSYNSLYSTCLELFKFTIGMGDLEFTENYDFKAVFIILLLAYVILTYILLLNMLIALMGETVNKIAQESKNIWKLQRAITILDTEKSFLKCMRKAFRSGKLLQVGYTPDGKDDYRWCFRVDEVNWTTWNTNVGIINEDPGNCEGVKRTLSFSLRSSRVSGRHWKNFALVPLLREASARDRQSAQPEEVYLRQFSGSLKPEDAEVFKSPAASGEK
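Fluo-8 calcium influx in TRPV1-expressing cells, kinetic read (ex 480/em 520 nm). Compound added and read 3 min for agonist activity, followed by capsaicin at EC20 final and 2 min further read for enhancement.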
gsp ag: agonists of gsp mutant (McCune-Albright syndrome). gsp mutant cells, cAMP HTRF, 30 min; control for the full effect not named in the record. Potency, µM (titrated, usually from 76.9 µM), without a hit: at the top dose activation (cAMP increase), most hits filed as activators. 340,000 tested, 0.13% active. AID 624287; active = well fitted activation curve with a large enough effect; inconclusive = small, poorly fitted or top-dose-only effect, or another doubt; inactive = no such curve, though single readings can be large or run the other way; cell line not stated here;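 also: phosphodiesterase inhibitor Ro 20-1724 added with compounds to block cAMP breakdown; potency is read from the fitted curve at half-maximal effect; nearly all actives have a fitted effect of over 60% in size; about a fifth of the inactives were tested at one dose only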
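Cells stably selected in G418 were plated at 2000/well, grown 16-24 hr, then given compounds in DMSO with the PDE inhibitor […] (300 uM solution added) for 30 min at 37C; cAMP was read by HTRF.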
Sfp inh: inhibitors of Bacillus subtilis Sfp phosphopantetheinyl transferase; Q9F4F7; Biochemical Sfp PPTase activity, qHTS; Potency, µM, for the others: max response, negative = inhibition, most hits filed as inhibitors; 310,000 tested, 3.5% active; AID 1490; active = well fitted inhibition curve with a large enough effect; inconclusive = small, poorly fitted or top-dose-only effect, or another doubt; inactive = no such curve, though single readings can be large or run the other way;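 also: the enzyme is Sfp with the accession as filed and its product quenches rhodamine fluorescence; potency is read from the fitted curve at half-maximal effect; 0% = enzyme reaction without inhibitor and -100% = no enzyme wells; top concentration of the series not given in the record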
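Sfp 15 nM + cpd, 15 min RT; start w/ rhodamine-CoA 5 uM, BHQ-2-YbbR 12.5 uM (final); 50 mM Hepes pH 7.6, 10 mM MgCl2, 0.01% NP-40, 0.01% BSA; read 525/598 nm at 0 and 30 min.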
gsp antagonist: antagonists of gsp mutant (McCune-Albright syndrome); gsp-mutant cells, cAMP HTRF, 30 min; control for the full effect not named in the record; AID 624288; 340,000 tested, 0.4% active; Potency, µM (series often up to 76.9 µM), for inactives: at the highest dose activity change, negative = inhibition, actives largely listed as inhibitors; active = falling curve of any shape with a large fitted effect; inconclusive = falling curve, mostly with a smaller effect; inactive = flat or rising curve; cell line not stated here;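 also: intracellular cAMP measured with PDE inhibitor Ro 20-1724 present during compound exposure; potency is read from the fitted curve at half-maximal effect; % is scaled to controls: 0 for no effect and ±100 for the full control effect; nearly all actives have a fitted effect of over 65% in size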
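G418-selected cells were plated in DMEM/10% FBS for 16-24 h at 37C, then treated with compounds plus the PDE inhibitor […] (300 uM solution added) for 30 min at 37C. Intracellular cAMP was measured by HTRF after 30 min lysis at room temperature.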
CtBP-E1A blk: CtBP/E1A binding inhibition; AlphaScreen GST-E1A/His-CtBP binding, 1536-well; active compounds read low; control for the full effect not named in the record; activity change, % (no concentration beside the values); 340,000 tested, 0.49% active; in the data active means activity change below about -65%; inconclusive means about -30% to -65%; inactive means above about -30%; also: % is scaled to controls: 0 for no effect and ±100 for the full control effect
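GST-E1A and His-tagged CtBP (125 nM each as 5X stock) were preincubated with pin-transferred compound for 2 h at 37 °C in the dark, then glutathione donor and nickel acceptor beads were added for 1 h before AlphaScreen reading.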
Menin MLL FP FL: menin-MLL binding inhibition, fluorescein peptide; Fluorescence polarization, fluorescein-MLL peptide displacement from menin; FP activity change, % at 61.4 µM; 290,000 tested, under 10 active; inconclusive = falling polarisation curve, or a change in total fluorescence; inactive = total fluorescence flat and polarisation flat or rising; no compound was filed as active; the % refers to the polarisation; negative = inhibition;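 also: % of control where 0% means no effect; inhibitors lower the polarisation; unlabelled MLL peptide was the positive control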
* hit, by the source's call; u = inconclusive; x = no result given; & = joins results of further samples; [ ] = another dose, or the depositor's remark.

SMILES	ClpP mod	TRPV1 PAM	gsp ag	Sfp inh	gsp antagonist	CtBP-E1A blk	Menin MLL FP FL
O=C(CN1CCc2[nH]c3ccccc3c2C1)N1CCCCC1	-13%	21	-81%[inhibitor]	6%	1%	1	-3.3
COc1ccc(-c2cc3nnc(-c4ccccc4)nc3s2)cc1	-8.1%	4	-2%[15.4 µM]	40µM*	u	7	0.3
Cc1ccc(/C(O)=C2/C(=O)C(=O)N(CCN3CCOCC3)C2c2ccccn2)cc1 (stereo not given)	-1.0%	9	-7%	56µM*	-16%	-1	1.4
Nn1c(CN2CCCCC2)nc2ccccc2c1=O	-1.1%	10	-36%	3%	-3%	15	5.4
O=C1Nc2ccc(Br)cc2C1(O)c1ccc(F)cc1 (stereo not given)	0.1%	5	0%	10%	0%	x	-4.2
COc1ccc(C(=O)Cc2cc3cccc(OC)c3oc2=O)cc1	-5.7%	25	u	1%	-3%	x	-5.9
Cc1ccccc1N1CCN(Cc2nc(Cc3ccccc3)no2)CC1	-2.9%	-10	-13%[15.4 µM]	8%	3%	1	0.2
Cc1cc(F)ccc1NCc1ccc([N+](=O)[O-])cc1	x	-1	33%[15.4 µM]	6%	x	-6	-1.2
COc1ccc(OC)c(C(c2nnnn2C2CCCC2)N2CCN(c3ccc(F)cc3)CC2)c1 (stereo not given)	-6.5%	12	-23%	5%	-7%	-2	-0.8
O=S(=O)(NCc1nnnn1-c1ccc(F)cc1)c1ccc(F)cc1	-2.1%	x	-74%	x	x	0	x
COC(=O)c1c(N2C(=O)CC(Sc3ccccc3C(=O)O)C2=O)sc2c1CCCC2 (stereo not given)	x	7	u	1.6µM*	11%	-6	17
Cc1ccc(N(C)C2=NC(=O)CS2)cc1Cl	-1.7%	12	7%[15.4 µM]	5%	-5%	-1	2.1
O=C(c1ccc2c(c1)OCO2)N1CCN(c2ccc(C(F)(F)F)cn2)CC1	u	-7	-27%	9%	5%	-14	4.9
O=C(COC(=O)CNC(=O)c1ccccc1Cl)NC1CCCC1	x	x	4%	x	-11%	1	x
Cc1ccc(OCC(=O)N/N=C/c2cccn2C)cc1C	-2.6%	x	-70%[inhibitor]	-22%	-2%	u	4.7
COc1ccc(Cl)c(OC)c1C(=O)NC(=O)Nc1nc(C)nc(C)n1	-2.3%	6	u	9%	-4%	1	x
CN1c2ccccc2C(=O)NC1c1ccc([N+](=O)[O-])s1 (stereo not given)	x	5	4%[15.4 µM]	5%	0%	-3	0.6
CCOC(=O)COc1c(/C=N\O)cc(Cl)cc1OC	x	-4	8%[15.4 µM]	11%	-13%	0	5.5
Cc1c(Cl)cccc1NC(=O)NCCCN1CCCC1=O	0.3%	4	-50%[inhibitor]	5%	12%	2	x
CCN(C(=O)COC(=O)CN1C(=O)c2ccccc2C1=O)c1ccccc1	0.9%	x	16%	x	-17%	9	x
Cc1nnc(SCC(=O)NNC(=O)C(C)C)[nH]c1=O	-0.5%	1	-4%	1%	8%	-13	6.0
O=C(Nc1ccc(N2CCN(C(=O)c3ccccc3)CC2)c(Cl)c1)c1ccc(Br)o1	-2.1%	5	-48%[inhibitor]	6%	u	41	1.8
CC1CC2(CCCC2)N(C(=O)c2ccccc2)Cc2ccccc21 (stereo not given)	2.0%	-4	-3%	-7%	-23%	0	3.8
CCC(=O)Nc1ccc2c(c1)nc(CCN1CCCCC1)n2C	-3.2%	-5	8%	8%	3%	-10	0.3
CC(c1ccco1)N(C(=O)C12CC3(C)CC(C)(CC(C)(C3)C1)C2)c1ccccn1 (stereo not given)	-1.2%	-2	22%	1%	7%	-2	-1.0
COc1ccc(NC(=S)/N=C(\N)Nc2nc(C)c3ccccc3n2)cc1	x	15	25%[15.4 µM]	11%	-23%	-26	2.4
COCCn1c(SCC(=O)NNC(=O)Cc2ccccc2)nc2ccccc2c1=O	x	1	1%[15.4 µM]	-1%	1%	x	-0.9
CCS(=O)(=O)N1CCC(N2CCN(c3ccccc3)CC2)CC1	-2.5%	u	-10%	7%	7%	x	2.5
O=C(O)c1ccc(C(=O)c2ccc3c(c2)C(=O)N(CC2CCCO2)C3=O)cc1 (stereo not given)	0.4%	-1	8%	10%	-5%	-3	-0.2
Cc1sc2ncnc(Sc3ccccc3C(=O)Nc3ccc(C#N)cc3)c2c1C	-6.5%	-13	0%	-5%	0%	-20	x
COC(=O)c1ccccc1Oc1ccc(NC(=O)CCCl)cc1	x	-7	6%[15.4 µM]	12%	-4%	0	9.2
[N-]=[N+]=CC(=O)CC(c1ccccc1)N1C(=O)c2ccccc2C1=O (stereo not given)	1.1%	-1	-34%	-27%	19%	-13	4.2
COc1ccc(CCC(=O)NCc2cn3ccsc3n2)cc1	0.5%	x	9%	x	3%	4	x
O=C(NC(=S)N1CCCCC1c1cccnc1)c1ccc(F)cc1 (stereo not given)	0.8%	-1	5%	-16%	0%	1	-4.4
COc1ccccc1CNS(=O)(=O)c1ccc(-n2cnnn2)c(C)c1	-4.1%	0	-6%[15.4 µM]	14%	-11%	0	x
COc1ccccc1NS(=O)(=O)c1cc(NC(=O)Nc2ccccc2)ccc1N1CCCCC1	25µM*	-14	-10%[15.4 µM]	u	5%	-20	x
O=C(Nc1ccccc1)[C@@H]1CC=C[C@@H]2CCN(Cc3ccc(Cl)c(Cl)c3)C(=O)[C@@H]21	0.6%&-0.2%	x	-17%	x	-21%	x	x
Cc1ccc(C(=O)Nc2ccccc2Cl)cc1	0.2%	-31	-13%[15.4 µM]	17%	-24%	0	-0.3
O=[N+]([O-])c1c(Nc2ccccc2O)ccc2nonc12	x	-1	1%[15.4 µM]	-9%	-17%	-7	-1.2
O=C(NCCO)c1cc2ccccc2cc1O	-5.0%	6&28	5%	5%&0%	-9%	13	-2.0&7.8
Cc1ccc(OCCC(=O)OCC(=O)NC(=O)c2ccccc2)cc1	x	-9	-3%[15.4 µM]	x	-20%	10	x
O=C(C1CCCC1)N(c1ccccc1)C1C=CS(=O)(=O)C1 (stereo not given)	0.4%	-3	-14%	5%	-8%	34	1.7
Cc1cc2cc3c(cc2nc1SCC(=O)Nc1ccccc1)CCC3	-1.3%	x	-21%	10%	9%	14	4.2
Cc1ccc(S(=O)(=O)/N=C2/C=C(Sc3ncn[nH]3)C(=O)c3ccccc32)cc1	16%	7	-13%	3.2µM*	u	35	-1.5
COc1ccc(OC)c(/C=N/N=C2\SCC(=O)N2Cc2ccco2)c1	-16%	-6	-22%	56µM*	u	-12	0.4
CCC(CO)Nc1nc2ccc(Cl)cc2c2ccccc12 (stereo not given)	3.2%	-19	-10%	u	-17%	2	-17
O=C(COc1ccc(F)cc1Br)N1CCN(S(=O)(=O)/C=C/c2ccccc2)CC1	-1.9%	2	-2%[15.4 µM]	17%	-4%	2	1.3
NC(=O)c1cc2ccccc2o/c1=N/NC(=O)c1cccs1	2.2%	-7	-51%[inhibitor]	-28%	-6%	-26	2.7
COc1cc(O)c(C(=O)/C=C/c2ccccc2)c(OC)c1	7.0%	6	x	-23%&-23%	u	0	-0.7&-0.2
COc1cc(NC(=O)c2ccc(N)nc2)cc(C(=O)Nc2cccc(C(F)(F)F)c2)c1	-10%&-3.1%	u	-36%[inhibitor]	8%	-8%	4&1	0.4

Remaining list, next part.
SMILES	ClpP mod	TRPV1 PAM	gsp ag	Sfp inh	gsp antagonist	CtBP-E1A blk	Menin MLL FP FL
Cc1cc(-c2nc(C)c(C(=O)NNS(=O)(=O)c3cccc(C(F)(F)F)c3)s2)no1	1.4%	6	-5%	-3%	-16%	1	-1.3
COc1ccc(CC2(CO)CCN(C/C=C/c3ccccc3OC)CC2)cc1	x	1	-3%	20%	8%	-18	-1.0
COc1ccc(-c2[nH]ncc2CN(C)C(C)c2ccncn2)c(F)c1 (stereo not given)	x	4	6%	9%	3%	1	7.8
COc1cccc(-n2c(C)nc3cc(C(=O)O)ccc32)c1	2.7%&-1.6%	0	-55%[inhibitor]	-4%	-21%	14	3.7
COc1ccc(Cl)cc1C(=O)OCC(=O)N1CCCC(C)C1 (stereo not given)	x	x	-38%[inhibitor]	x	0%	5	x
COCCCNC(=O)Cn1nnc(-c2ccccc2NC(=O)c2ccc(F)cc2)n1	-5.2%	2	17%	7%	5%	8	-4.3
Cc1cccc(-n2ncc3c(NCc4ccco4)ncnc32)c1	u	10	-1%	1%	3%	0	4.4
O=C(N/N=C/c1ccccc1OCC(=O)N1CCCC1)C(=O)Nc1ccccc1F	-2.0%	8	20%[15.4 µM]	20%	-7%	1	3.6
Fc1ccc(NC(=S)NCCN2CCOCC2)cc1	x	0	-22%[15.4 µM]	10%	11%	0	1.5
Cc1cccc(OCc2n[nH]c(=S)n2-c2ccccc2)c1	-0.2%	11	14%	11%	-18%	u	-3.9
COc1ccc2nc(-c3ccccc3)nc(SCC(=O)NCC3CCCO3)c2c1 (stereo not given)	0.3%	-4	18%[15.4 µM]	4%	-37%	21	-8.9
CCn1c(COc2cccc(C)c2)nc2ccccc21	3.5%&-2.2%	-13	-36%[inhibitor]	-11%	-13%	-1	-1.3
CC(Nc1ccc(Cl)cc1)C(=O)NN (stereo not given)	-0.5%	-11	-14%[15.4 µM]	0%	-1%	6	3.6
O=C(Cc1ccccc1)NCCn1ccc2ccccc21	-1.9%	-11	20%	25%	0%	-2	-1.7
CC(C)C1=NOC(C(=O)N2CCC(N3CCC(C(=O)N4CCOCC4)CC3)CC2)C1 (stereo not given)	x	-7	-19%	14%	8%	7	-9.0
Cc1ccc(/C=N/NC(=O)C(c2ccncc2)N2CCOCC2)cc1 (stereo not given)	-2.6%	6	-25%	4%	6%	x	-9.3
COc1ccccc1Nc1ccc(Nc2ccccc2OC)nn1	-2.4%	14	0%	11%	-22%	1	3.1
CCOC(=O)N1CCN(C(=O)CCN2C(=O)c3ccccc3S2(=O)=O)CC1	x	12	0%[15.4 µM]	x	0%	-5	x
O=C(CCCOc1ccccc1)N1CCN(S(=O)(=O)c2cccc(F)c2)CC1	1.3%	-5	-49%[inhibitor]	x	-9%	0	x
Cc1cccc(N2C(=O)c3ccc(C(=O)Nc4cccc(C(=O)O)c4)cc3C2=O)c1	0.8%	1	12%	9%	-7%	x	-5.1
CCOC(=O)c1c(-c2ccco2)csc1NC(=O)COC(=O)c1cnccn1	1.9%	9	u	x	-4%	-21	x
